Marburg entry inh: inhibitors of Marburg virus binding or cell entry. Marburg virus pseudotyped entry inhibition, cell reporter; control for the full effect not named in the record; about a third of the inactives were read at about 46 µM. 300,000 compounds, 1.8% hits. Potency, µM (titrated, usually from 37.8 µM), without a hit: at the top dose activity change, negative = inhibition, usual class: inhibitors; active = well fitted inhibition curve with a large enough effect; inconclusive = small, poorly fitted or top-dose-only effect, or effect the other way; inactive = flat fitted curve, though single readings scatter; tested in HEK293 cells; about a fifth of its hits are not listed in these tables; further: on the % scale 0 is the no-effect control and ±100 the full control effect; luciferase read-out
Cruzain inh Det: inhibitors of Trypanosoma cruzi cruzain with detergent; P25779; Potency, µM, for inactives: max response, negative = inhibition, usual class: inhibitors; AID 1478; purified cruzain, Z-FR-AMC fluorescence, 0.01% Triton; 200,000 compounds, 0.43% hits;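 further: plate controls were neutral wells for no effect and buffer without enzyme for full effect; nearly all actives have a fitted effect of over 40% in size; top concentration of the series not given in the record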
Target sequence (P25779 123-467 limits assumed): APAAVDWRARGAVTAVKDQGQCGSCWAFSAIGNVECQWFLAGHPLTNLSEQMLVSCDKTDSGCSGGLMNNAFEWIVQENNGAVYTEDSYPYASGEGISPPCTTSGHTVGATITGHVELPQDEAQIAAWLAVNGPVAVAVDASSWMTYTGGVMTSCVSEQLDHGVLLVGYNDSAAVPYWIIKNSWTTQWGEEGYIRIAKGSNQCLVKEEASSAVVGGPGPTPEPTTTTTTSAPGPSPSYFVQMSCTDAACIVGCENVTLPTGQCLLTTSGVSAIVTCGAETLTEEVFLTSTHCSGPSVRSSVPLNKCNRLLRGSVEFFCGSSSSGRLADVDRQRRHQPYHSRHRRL
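Purified cruzain (1.5 nM final) was preincubated with compounds for 15 min at room temperature in 100 mM sodium acetate pH 5.5, 5 mM DTT, 0.01% Triton X-100. Reaction started with 2 uM Z-FR-AMC; AMC fluorescence change over 60 s gave activity.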
NS1 function inh: influenza NS1 inhibition. Potency, µM (doses to about 46.1 µM), inactives show top-dose activity, positive = more growth. 270,000 compounds, 0.4% hits. S. cerevisiae slowed by influenza A NS1, growth recovery by OD600; active means well fitted rising curve with a large enough effect; inconclusive means small, poorly fitted or top-dose-only effect; inactive means no such curve, though single readings can be large or run the other way; further: nearly all actives have a fitted effect of over 50% in size
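Read-out: OD600 growth recovery of NS1-expressing budding yeast. Cells grown overnight at 30C in -URA glucose medium, washed, resuspended and diluted 1:100 in 2% galactose assay medium, pH 6.0. Same strain lacking NS1 served as positive control.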
2A StopGo: FMDV 2A StopGo reporter, luciferase signal | human cells with a luciferase reporter of 2A StopGo recoding; control for the full effect not named in the record | Potency, µM (top dose mostly 57.9 µM), for the others: at the top dose signal change, negative = less light | 410,000 compounds, 1.2% hits; active = well fitted falling curve with a large enough effect; inconclusive = small, poorly fitted or top-dose-only effect; inactive = no such curve, though single readings can be large or run the other way; tested in HEK293T cells; further: on the % scale 0 is the no-effect control and ±100 the full control effect; nearly all actives have a fitted effect of over 45% in size; luciferase light after 4 h
SARS PLP yeast: blocks SARS-CoV papain-like protease in a yeast assay; S. cerevisiae expressing SARS-CoV PLpro, growth rescue; control for the full effect not named in the record; AID 485353; Potency, µM (series often up to 32.9 µM), for inactives: at the highest dose activity, positive = growth rescue; 330,000 compounds, 0.19% hits; active means well fitted rising curve with a large enough effect; inconclusive means small, poorly fitted or top-dose-only effect; inactive means no such curve, though single readings can be large or run the other way; further: 0% is about no effect; nearly all actives have a fitted effect of over 55% in size; growth read by luminescence after 48 h
Cruzain noTriton: blocks cruzain activity in detergent-free assay. P25779. purified cruzain, Z-FR-AMC fluorescence, no detergent. Potency, µM, inactives show max response, negative = inhibition, usual class: inhibitors. 200,000 compounds, 2.3% hits;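 further: plate controls were enzyme without inhibitor for no effect and buffer without enzyme for full effect; nearly all actives have a fitted effect of over 40% in size; top concentration of the series not given in the record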
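Detergent-free condition (0.00005% Triton X-100) in acetate buffer pH 5.5 with DTT. 1.5 nM enzyme and compound were pre-mixed 15 min, then 2 uM Z-FR-AMC substrate added; reaction progress from fluorescence change between first and third reads (60 s).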
Lassa entry inh: Lassa virus entry inhibition; Lassa virus pseudotype entry inhibition, cell reporter; control for the full effect not named in the record; Potency, µM (titrated, usually from 37.9 µM), inactives show at the top dose activity change, negative = inhibition, usual class: inhibitors; 300,000 compounds, 1.2% hits; active means well fitted inhibition curve with a large enough effect; inconclusive means small, poorly fitted or top-dose-only effect, or effect the other way; inactive means flat fitted curve, though single readings scatter; tested in HEK293 cells; further: on the % scale 0 is the no-effect control and ±100 the full control effect; nearly all actives have a fitted effect of over 50% in size; luciferase read-out
RE007 growth inh: less growth of the S. pombe RE007 Vpr strain; S. pombe RE007 Vpr strain, BacTiter-Glo ATP luminescence, 24 h; control for the full effect not named in the record; Potency, µM (doses to about 92.2 µM), without a hit: at the top dose activity change, negative = less growth; 360,000 compounds, 0.21% hits; AID 651644; active = well fitted falling curve with a large enough effect; inconclusive = small, poorly fitted or top-dose-only effect; inactive = no such curve, though single readings can be large or run the other way;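 further: on the % scale 0 is the no-effect control and ±100 the full control effect; nearly all actives have a fitted effect of over 50% in size; the assay follows cell death caused by Vpr and the record does not say whether a fall means rescue or toxicity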
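Fission yeast RE007 carrying one integrated HIV-1 vpr copy, seeded at OD 0.01 in PMG+AL medium with 23 nL pinned compound. Grown 24 h at 30 degrees; viability read by BacTiter-Glo luminescence after 5 min.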
* marks the source's active call; other numbers are inactive results; & = joins results of further samples; [ ] = another dose, or the depositor's remark. Unless noted, the call rests on the fitted dose curve; in most records, active means well fitted curve in the direction sought with a large enough effect; inconclusive means small, poorly fitted or top-dose-only effect, or another doubt; inactive means no such curve, though single readings can be large; an effect the other way counts as inactive or inconclusive. Potency means the concentration at half of the fitted maximal effect.

Screening NNC(=O)c1ccc(COc2ccccc2)cc1 returned Cruzain inh Det -1.3%, NS1 function inh 21%, 2A StopGo 21%, SARS PLP yeast -3%, Cruzain noTriton 9% and RE007 growth inh 9%.
For c1ccc(-c2nc(C3CCCCC3)no2)cc1 the results were Marburg entry inh 7%, Cruzain inh Det 5.6%, NS1 function inh inconclusive, 2A StopGo 62%[activator], SARS PLP yeast 2%, Cruzain noTriton -1%, Lassa entry inh inconclusive and RE007 growth inh 7%.
Clc1cccc(Cl)c1Cn1c(-c2cccnc2Cl)nc2ccccc21 was read as Marburg entry inh inconclusive, Cruzain inh Det -3.4%, NS1 function inh -25%, 2A StopGo inconclusive, SARS PLP yeast 2%, Cruzain noTriton 4%, Lassa entry inh -28% and RE007 growth inh 10%.
`O=CNCCCc1nc2ccccc2n1Cc1cccc2ccccc12` gave Marburg entry inh -6%, Cruzain inh Det -2.3%, NS1 function inh 1%, 2A StopGo -17%, SARS PLP yeast -3%, Cruzain noTriton inconclusive, Lassa entry inh -19% and RE007 growth inh -1%.
For Cc1ccc(C(=O)NC(=S)Nc2nc(-c3cccc([N+](=O)[O-])c3)cs2)c(Cl)c1 the results were Marburg entry inh 14%[46.1 µM], 2A StopGo -6%, SARS PLP yeast 4%, Lassa entry inh 16%[46.1 µM] and RE007 growth inh -13%.
O=C(Nc1ccc(Br)cc1Cl)c1ccc(OCC2CCCO2)cc1 (stereo not drawn) was read as Marburg entry inh inconclusive, 2A StopGo 6%, SARS PLP yeast -15%, Lassa entry inh -27% and RE007 growth inh 14%.
Screening Cc1cc(C)n(CCc2nc(-c3ccc(C(C)(C)C)cc3)cs2)n1 returned Marburg entry inh -26%, Cruzain inh Det -10%, NS1 function inh 13%, 2A StopGo inconclusive, SARS PLP yeast 12%, Cruzain noTriton 29%, Lassa entry inh inconclusive and RE007 growth inh -12%.
Screening Cc1oc2c(c1C(=O)NCc1cc(C(=O)O)co1)CCCC2 returned Marburg entry inh -2%, Cruzain inh Det 0.9%, NS1 function inh 2%, 2A StopGo -15%, SARS PLP yeast -1%, Cruzain noTriton 2%, Lassa entry inh 21% and RE007 growth inh -3%.
For Cc1ccc(Cl)cc1N(CC(=O)NC1CCCC1)C(=O)c1csnn1 the results were Marburg entry inh -4%[46.1 µM], NS1 function inh -1%, 2A StopGo 9%, SARS PLP yeast -2%, Lassa entry inh -1% and RE007 growth inh 9%.
O=C(c1ccccc1)c1cccc(NC(=O)C2CC2)c1 was read as Marburg entry inh 22%, Cruzain inh Det 0.3%, NS1 function inh -72%, 2A StopGo 13%, SARS PLP yeast -23%, Cruzain noTriton -8%, Lassa entry inh -3% and RE007 growth inh 3%.
Screening Cc1ccc(S(=O)(=O)N2CCN(C(=O)CSc3nc4ccccc4c(=O)[nH]3)CC2)cc1 returned Marburg entry inh -11%&-11%, Cruzain inh Det 4.6%, NS1 function inh 7%, 2A StopGo -7%, SARS PLP yeast 5%, Cruzain noTriton 8%, Lassa entry inh 4% and RE007 growth inh 15%.
For CNc1ncnc(NC)c1[N+](=O)[O-] the results were Marburg entry inh -7%[46.1 µM], 2A StopGo 2%, Lassa entry inh 12%[46.1 µM] and RE007 growth inh -12%.
For O=C(CSc1nnc2c(n1)[nH]c1ccc(F)cc12)NC1CC1 the results were Marburg entry inh 9%[46.1 µM], NS1 function inh -4%, 2A StopGo 3%, SARS PLP yeast -2%, Lassa entry inh inconclusive and RE007 growth inh 11%.
Cc1ccc(N2CCN(C(=O)c3cn(CC4CCCCC4)nn3)C(C)C2)cc1 (stereo not drawn) was read as Marburg entry inh inconclusive, 2A StopGo -10%, Lassa entry inh -20%[46.1 µM] and RE007 growth inh 14%.
COc1ccc(CNC(=O)c2ccc(CN3CCOCC3)cc2)cc1 was read as Marburg entry inh -5%[46.1 µM], Cruzain inh Det -2.1%, NS1 function inh 8%, 2A StopGo 0%, SARS PLP yeast -3%, Cruzain noTriton -2%, Lassa entry inh 11% and RE007 growth inh 13%.
For CCCn1c(SCC(=O)NC(C)C)nc2sc3c(c2c1=O)CCC3 the results were Marburg entry inh 10%[46.1 µM], NS1 function inh -8%, 2A StopGo 8%, SARS PLP yeast 0%, Lassa entry inh 0%[46.1 µM] and RE007 growth inh 28%.
Cc1ccccc1C(=O)N=c1ccn(-c2nc3ccccc3nc2NS(=O)(=O)c2ccccc2)cc1 was read as NS1 function inh 2%, 2A StopGo -7%, SARS PLP yeast 0% and RE007 growth inh -2%.
Screening COc1ccc(-n2nc(C(=O)NCC(=O)Nc3cc(Cl)c(OC)cc3OC)c3ccccc3c2=O)cc1 returned Marburg entry inh inconclusive, NS1 function inh 5%, 2A StopGo -11%, SARS PLP yeast 10%, Lassa entry inh -2% and RE007 growth inh -12%.
`COc1cc2c(cc1OC)C(COc1ccc(F)cc1)N(C(=O)C(C)C)CC2` (stereo not drawn) gave Cruzain inh Det 0.7%, 2A StopGo -9%, Cruzain noTriton 16% and Lassa entry inh 15%[46.1 µM].
`CC(=O)N1CCc2cc(S(=O)(=O)NCCC(=O)NC3CCN(Cc4ccccc4)CC3)ccc21` gave Marburg entry inh -26%[46.1 µM], Cruzain inh Det 1.5%, NS1 function inh 2%, 2A StopGo -20%, SARS PLP yeast 0%, Cruzain noTriton -5%, Lassa entry inh -17% and RE007 growth inh -6%.
`CCOC(=O)c1sc(-c2ccc(OC)cc2)cc1N` gave Marburg entry inh inconclusive, Cruzain inh Det -11%, NS1 function inh -3%, 2A StopGo 56%[activator], SARS PLP yeast -9%, Cruzain noTriton -7%, Lassa entry inh inconclusive and RE007 growth inh -11%.
N#Cc1cc(-c2ccccc2)nc(Oc2ccccc2)n1 was read as Cruzain inh Det 16µM*, NS1 function inh -21%, 2A StopGo inconclusive, SARS PLP yeast inconclusive, Cruzain noTriton -25% and RE007 growth inh 9%.
c1ccc2c3c([nH]c2c1)C1(CCNCC1)NCC3 was read as Marburg entry inh -28%, NS1 function inh 6%, 2A StopGo -11%, SARS PLP yeast 0%, Lassa entry inh -19% and RE007 growth inh 1%.
CC(C)CC(=O)N1CCN(Cc2ccc3c(c2)OCO3)CC1 was read as Marburg entry inh 4%, Cruzain inh Det -3.9%, NS1 function inh 4%, SARS PLP yeast 6%, Cruzain noTriton -7%, Lassa entry inh 11% and RE007 growth inh 5%.
For O=S(=O)(c1ccc(-c2ccccc2)cc1)N1CCOCC1 the results were Marburg entry inh 4%&4%, Cruzain inh Det 3.9%, NS1 function inh 14%, 2A StopGo -8%, Cruzain noTriton -30%, Lassa entry inh -10% and RE007 growth inh 5%.
For CC1(C)C2CC=C(/C=N/n3cnnc3)C1C2 (stereo not drawn) the results were Marburg entry inh -6%, Cruzain inh Det 2.2%, NS1 function inh -4%, 2A StopGo -9%, SARS PLP yeast -6%, Cruzain noTriton 2%, Lassa entry inh 0% and RE007 growth inh 4%.
For COc1cc(NC(=O)[C@@H](NC(=O)N2CCn3c2nc2ccccc23)C(C)C)cc(OC)c1 the results were NS1 function inh 2%, 2A StopGo -12%, SARS PLP yeast -8% and RE007 growth inh 3%.
Screening CCOC(=O)N1CCC(=NNC(=O)c2cc3ccccc3cc2O)CC1 returned Marburg entry inh -2%, Cruzain inh Det -5.9%, NS1 function inh inconclusive, 2A StopGo -22%, SARS PLP yeast inconclusive, Cruzain noTriton -11%, Lassa entry inh 6% and RE007 growth inh -17%.
For Cc1ccc(Cl)cc1NC(=O)c1ccccc1OCC(=O)Nc1ccc(Cl)cc1 the results were Cruzain inh Det 0.5%, NS1 function inh 5%, 2A StopGo inconclusive, SARS PLP yeast 22%, Cruzain noTriton 0% and RE007 growth inh -10%.
CN(C)c1ccc(C=c2c3ccccc3n3c2c2c([n+]3C)CCCC2)cc1 was read as Marburg entry inh 4.5µM*, 2A StopGo 6.3µM*, Lassa entry inh 7.9µM* and RE007 growth inh inconclusive.
COc1ccc2c(C)c(CCC(=O)NCc3ccccc3Cl)c(=O)oc2c1C was read as Marburg entry inh 25%[46.1 µM], Cruzain inh Det -1.3%, 2A StopGo -7%, Cruzain noTriton 1% and Lassa entry inh inconclusive.
Screening Cc1ccc([N+](=O)[O-])cc1S(=O)(=O)NCCc1cn2ccccc2n1 returned NS1 function inh -4%, 2A StopGo -3%, SARS PLP yeast 2% and RE007 growth inh 2%.
Screening CCN(CC)C(=O)Cn1c(=O)n(C)c2ccccc21 returned Marburg entry inh inconclusive, Cruzain inh Det -2.5%, NS1 function inh 2%, 2A StopGo 11%, SARS PLP yeast 3%, Cruzain noTriton -6%, Lassa entry inh 8% and RE007 growth inh 34%.
COc1ccc(CCNC(=O)C(=O)NCC2OCCCN2S(=O)(=O)c2cc(C)ccc2C)cc1 (stereo not drawn) was read as Marburg entry inh -29%, NS1 function inh 7%, 2A StopGo inconclusive, SARS PLP yeast -3%, Lassa entry inh -11% and RE007 growth inh 16%.
For CC(=O)Nc1ccc(Nc2ccc3c4c(cc(=O)n3C)-c3ccccc3C(=O)c24)cc1 the results were Marburg entry inh inconclusive, 2A StopGo -21%, SARS PLP yeast -8%, Lassa entry inh 13% and RE007 growth inh -7%.
Screening CN(C)CCN1C(=O)C(=O)/C(=C(/O)c2ccccc2)C1c1ccccc1F (stereo not drawn) returned Marburg entry inh -1%, Cruzain inh Det 3.3%, NS1 function inh -12%, 2A StopGo -21%, SARS PLP yeast 9%, Cruzain noTriton -6%, Lassa entry inh -2% and RE007 growth inh 0%.
`CC(c1ccccc1)(c1ccccc1)c1ccncc1` gave Marburg entry inh inconclusive, 2A StopGo inconclusive, SARS PLP yeast -1%, Lassa entry inh 16% and RE007 growth inh 30%.
